Compound activity deposited in PubChem by several laboratories.
ALR H2O2 inh – human ALR oxidase inhibition via reduced H2O2; P55789; purified ALR, DTT oxidation, H2O2 HRP-luminol luminescence; inhibition, % (concentration not given with the values); 290,000 compounds, 3.8% hits; AID 485317;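 active = mean and each replicate at 75% or more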;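 also: stock transfer was 7.5 nL into about 7.5 µL; 0% = neutral wells and 100% = wells with inactivated enzyme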
Target sequence (P55789 whole entry, looked up): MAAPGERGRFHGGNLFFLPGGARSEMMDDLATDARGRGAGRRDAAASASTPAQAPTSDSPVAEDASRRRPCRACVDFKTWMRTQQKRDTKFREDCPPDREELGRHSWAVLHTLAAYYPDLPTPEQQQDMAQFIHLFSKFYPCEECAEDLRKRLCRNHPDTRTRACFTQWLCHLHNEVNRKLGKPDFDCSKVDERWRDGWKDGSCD
Vif A3G – inhibitors of Vif binding to APOBEC3G peptide, primary screen, biochemical, TR-FRET, GST-Vif 1-94, biotin-A3G peptide, dose response retest (AID 1117319) | TR-FRET GST-Vif / biotin-A3G peptide binding; higher % means a stronger effect; test concentration not given here; strong numbers were not always called active | inhibition, %; hits with a dose series show IC50 in µM | 260,000 compounds, 0.57% hits;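 active = above the screen mean plus three standard deviations and confirmed in dose response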;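 also: Vif residues 1-94 fused to GST binding biotinylated APOBEC3G peptide 110-148; 0% = full assay without inhibitor and 100% = GST in place of GST-Vif; retest series ran down from 100 µM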
MLL AF4-AF9 inh – blocks AF4 peptide binding to human AF9; AID 651704; AlphaScreen, biotin-AF4 peptide binding to FLAG-AF9; P42568; inhibition, % at 10 µM; 350,000 compounds, 0.47% hits;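 active = every replicate reaching a set inhibition limit, whatever the replicate mean, cut at about 25% in these data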;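 also: 0% = plate neutral control median and 100% = total signal loss; the record names both 10 and 1 µM as test concentration; the first replicate is given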
E coli growth – E. coli growth inhibition; Escherichia coli growth, OD600, 23 h; active compounds read low; OD600 absorbance (test concentration not listed); 330,000 compounds, 0.21% hits;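 active = OD600 absorbance below the run mean of sample wells minus 3.6 SD, in any replicate, cut at about 0.56 in these data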;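 also: stock transfer was 300 nL into about 60 µL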
rRNA inh HTS – inhibitors of bacterial rRNA selective over humanized ribosomes; E. coli WT GFP vs humanized-ribosome RFP mutants, fluorescence, 24 h; active compounds read low; DMSO median 0, no signal -100; GFP signal change (wild-type ribosome), % (test concentration not listed); 350,000 compounds, 1.6% hits; AID 720706;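 active = significant combined selectivity score with lowered wild-type GFP, culture density cut under 30%, mutant RFP and density less affected; inactive = any of these conditions unmet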; also: one replicate is shown; some compounds called inactive have numbers as strong as hits
FGF22 binding – binders of recombinant human FGF22 by thermal shift. SYPRO orange fluorescence; percent of sucrose octasulfate shift, DMSO zero. Q9HCT0. calls only at 9.99 µM. 340,000 compounds, 1.5% hits;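 active = melting point raised past a set limit in the mean and every replicate; three in four hits are not shown here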
Target sequence (Q9HCT0 whole entry, looked up): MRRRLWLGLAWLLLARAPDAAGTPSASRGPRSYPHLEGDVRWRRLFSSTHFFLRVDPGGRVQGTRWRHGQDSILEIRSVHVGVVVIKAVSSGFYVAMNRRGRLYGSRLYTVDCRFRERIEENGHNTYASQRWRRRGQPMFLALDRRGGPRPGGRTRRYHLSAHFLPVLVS
HNF4A DNA FP – change in binding of human HNF4 alpha to DNA; activity change, % at 10 µM; 360,000 compounds, 0.3% hits; HNF4a-FITC DNA binding, fluorescence polarization, 1 h; AID 1224865; P41235; in the data active = activity change above about 30%, passing the limit was not always enough;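 also: controls were the assay level and a saturating level of protein; the project sought stronger binding though the title names inhibitors; some compounds called inactive have numbers as strong as hits; positive values seem to mean higher polarization but the record does not say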
Target sequence (P41235 whole entry, looked up): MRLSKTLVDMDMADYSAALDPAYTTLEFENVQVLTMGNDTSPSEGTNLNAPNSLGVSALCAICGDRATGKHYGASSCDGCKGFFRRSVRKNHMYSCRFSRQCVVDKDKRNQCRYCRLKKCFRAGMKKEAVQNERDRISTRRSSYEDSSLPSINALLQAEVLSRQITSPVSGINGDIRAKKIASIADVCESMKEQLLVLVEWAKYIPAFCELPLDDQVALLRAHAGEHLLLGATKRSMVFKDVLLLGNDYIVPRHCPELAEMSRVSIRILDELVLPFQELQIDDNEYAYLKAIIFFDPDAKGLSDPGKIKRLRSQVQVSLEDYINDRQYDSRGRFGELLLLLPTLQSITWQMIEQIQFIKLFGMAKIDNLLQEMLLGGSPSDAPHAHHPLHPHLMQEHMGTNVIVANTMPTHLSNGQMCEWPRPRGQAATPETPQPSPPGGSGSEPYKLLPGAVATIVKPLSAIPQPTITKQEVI
rRNA inh HTS OD600 – also measured in rRNA inh HTS; calls as there; OD600 change, %; measured here: OD600 growth;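 optical density of the mix in the first replicate; 0 = DMSO median and -100 = no signal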
rRNA inh HTS RFP – also measured in rRNA inh HTS; calls as there; RFP signal change, %; measured here: RFP humanized mutant strains;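 first replicate; 0 = DMSO median and -100 = no signal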
The depositor's hits bear a star; i = inactive; · = no result given.

SMILES	ALR H2O2 inh	Vif A3G	MLL AF4-AF9 inh	E coli growth	rRNA inh HTS	rRNA inh HTS OD600	rRNA inh HTS RFP	FGF22 binding	HNF4A DNA FP
Cc1coc2c(C)c3oc(=O)c(CCC(=O)N(C)CC(=O)O)c(C)c3cc12	8	0%	-11	0.67	-8	-17	2.1	i	2.0
CCc1ccc(/C(C)=N/NC(=O)c2ccccn2)cc1	-7	·	3.7	·	3	-3	-2.9	i	6.1
Cc1noc(C)c1S(=O)(=O)Nc1ccc2c(c1)CC(=O)N([C@H](C)CO)C[C@H](C)[C@H](CN(C)Cc1ccccc1)O2	·	·	0.4	·	-3	-5	2.1	i	·
COCCNC(=O)CN1CCCCCC1	-2	-4%	-3.3	0.67	19	11	0.0	i	-1.3
O=C(Cc1ccc(O)cc1)NC1CCCCCC1	56	7%	1.0	0.71	16	4	4.5	i	-0.5
Cc1cc(-c2nnc(CCC(=O)N(CC3CC3)CC3CCCO3)o2)no1 (stereo not drawn)	0	1%	-2.4	0.71	6	7	-1.9	i	-2.9
CC1(C)CC(=O)c2sc(NC(=O)CN3CCCCC3)nc2C1	-4	-6%	·	0.71	·	·	·	·	-1.1
O=C(Nc1ccccc1C(=O)NCc1cccnc1)c1ccccc1F	-2	·	-6.0	0.7	5	-6	1.1	i	2.4
COc1ccc(CN(C)C[C@@H]2Oc3c(NS(=O)(=O)c4ccc(C)cc4)cccc3C(=O)N([C@@H](C)CO)C[C@@H]2C)cc1	·	·	1.9	·	3	5	-2.4	i	·
O=S(=O)(Cc1ccccc1)N1CC2(C1)[C@H](c1ccccc1)[C@@H](CO)N2CC1CCOCC1	·	·	-1.8	·	-3	-12	-4.4	i	·
CCC(=O)N(C)C[C@H]1Oc2cc(-c3ccccc3)ccc2S(=O)(=O)N([C@@H](C)CO)C[C@@H]1C	·	·	2.4	·	-6	-10	0.1	i	·
CCC(=O)Nc1ccc2c(c1)OC[C@H](C)N(Cc1cccnc1)C[C@@H](C)[C@H](OC)CN(C)C2=O	·	·	-9.0	·	-2	5	-1.7	i	·
CC(Cc1cccnc1)NC(=O)c1ccccc1OC1CCN(S(C)(=O)=O)CC1 (stereo not drawn)	4	-3%	-3.3	0.67	15	11	-1.0	i	4.6
CNC[C@@H]1Oc2ccc(NS(=O)(=O)c3cn(C)cn3)cc2CC(=O)N([C@H](C)CO)C[C@@H]1C	·	·	-2.7	·	4	9	0.2	i	·
C[C@@H]1CCCCO[C@H](CN(C)C(=O)CCCN(C)C)[C@H](C)CN([C@@H](C)CO)C(=O)c2cc(NC(=O)NC3CCCCC3)ccc2O1	·	·	2.9	·	7	17	0.7	i	·
CC(C)N1CCCC(C)(C(=O)Nc2ccc3c(c2)OCO3)C1 (stereo not drawn)	·	·	-4.2	·	4	14	-7.1	i	-2.8
Cn1c(/N=C/c2ccc3c(c2)OCO3)nc2ccccc21	4	-4%	-45	·	8	8	-3.9	i	2.6
Cc1ccc2c(Cl)cc(Cl)c(OCC(=O)Nc3cccc(S(=O)(=O)N(C)C)c3)c2n1	-26	6%	·	0.74	·	·	·	·	-5.3
O=S(=O)(c1ccc(NC(=S)Nc2ccc(OC(F)F)cc2)cc1)N1CCOCC1	-3	·	·	0.67	·	·	·	·	2.5
COC(=O)c1sc(-c2ccc(Cl)cc2)cc1NC(=O)CSCC(=O)O	58	-21%	2.3	0.65	-42*	-16*	-6.0*	i	2.6
COc1ccc2c3c([nH]c2c1)[C@H](CO)N(C(=O)c1cccc(F)c1)CC31CCN(C(=O)c2ccccc2)CC1	·	·	0.6	·	-4	15	-5.1	i	·
O=C(NC1=NCCS1)c1cc2ccccc2o1	-6	5%	·	0.61	·	·	·	·	-3.1
CCSCc1nc2ccccn2c1Br	·	2%	3.0	0.68	21	31	3.5	i	-3.5
COc1ccc(C)cc1N1CC(C(=O)Nc2ccccc2C(=O)NC2CC2)CC1=O (stereo not drawn)	7	·	2.1	0.67	-2	8	-1.8	i	-3.3
CCn1cc(/C=C/C(=O)Nc2c(C)nn(Cc3ccccc3C)c2C)cn1	-12	-2%	·	0.69	·	·	·	·	-2.7
COc1ccc(/C=C2\SC(=S)N(CC(=O)NCCO)C2=O)cc1	-19	-5%	1.4	0.71	14	15	2.3	i	-2.4
CC(C)(C)C(=O)N1CCC2CC1c1cc(-c3ccc4c(c3)OCO4)ccc12 (stereo not drawn)	·	·	3.0	·	-28	-35	-7.4	i	0.9
COc1cccc(-c2nc(CS(=O)(=O)CC(=O)NCCc3ccc(OC)c(OC)c3)c(C)o2)c1	47	-13%	-2.5	0.69	1	13	0.6	i	-5.5
Cc1ccc(S(=O)(=O)N2CCC(C)CC2)c([N+](=O)[O-])c1	0	2%	3.3	0.71	-25*	-16*	-0.6*	·	-1.2
COc1ccc(CCNC(=O)CSc2cn(Cc3ccccc3)c3ccccc23)cc1OC	·	24%	0.5	0.69	2	2	-2.8	i	4.8
S=C(Nc1ccc(Cl)cc1)N1CCN(C2CCCCC2)CC1	-6	-1%	·	0.63	·	·	·	·	-1.8
COCC(=O)Nc1ccc2c(c1)[C@H]1C[C@H](CC(=O)N[C@H](C)c3ccccc3)O[C@H](CO)[C@H]1O2	·	·	0.5	·	3	0	-0.9	i	·
CCCCCC[N+](C)(C)CC/C=C1/c2ccccc2Sc2ccc(Cl)cc21	-8	·	22	0.62	-46	-72	-13	i	2.0
C[C@H](CO)N1C[C@H](C)[C@@H](CN(C)Cc2ccncc2)Oc2c(NC(=O)c3ccc(-c4nccs4)cc3)cccc2C1=O	·	·	4.2	·	-10	-8	-1.5	i	·
COCCCNC(=O)c1ccc(CS(=O)(=O)c2ccccc2OC)o1	·	5%	-2.3	0.7	7	18	2.6	i	0.9
COC(=O)c1cc(-c2ccccc2)sc1NC(=O)CN1C(=O)c2ccccc2C1=O	-7	-7%	·	0.71	·	·	·	·	1.5
O=C(Nc1ccc(C(F)(F)F)cc1)N1CCN(C(=O)c2ccco2)CC1	-3	-2%	0.1	0.63	-9	-9	-3.6	i	-2.0
O=C(CC12CCC(CC1)C2)NCc1ccc2c(c1)OCO2	·	-2%	·	0.68	·	·	·	·	0.3
CC(=O)c1ccc(NC(=O)CN2C(=O)CCC2=O)cc1	·	·	-0.5	0.64	10	4	-0.6	i	-2.1
CNC(=S)N(CCc1c(C)[nH]c2ccc(OC)cc12)Cc1cccnc1	41	-10%	2.6	0.7	21	14	4.7	i	4.8
Cc1ccc2nc(NC(=O)C3CC3C)sc2c1 (stereo not drawn)	-10	·	-2.7	0.68	-1	3	-1.9	i	4.0
Cc1cc(N2CCN(C)CC2)nc2ccc(NC(=S)N3CCOCC3)cc12	12	-15%	8.9	0.67	2	2	-1.4	i	2.5
Cc1c(C(=O)N2CCCC2)oc2c1-c1nn(CC(=O)NCCCOC(C)C)cc1CC2	-40	·	-0.2	0.63	4	2	2.1	i	0.0
Clc1ccc(Cc2nnc(-c3cccs3)o2)cc1	-10	-3%	-4.5	0.7	-8	-11	0.6	i	1.6
COC(=O)n1c(SC)nc2ccccc21	-10	10%	·	0.76	·	·	·	·	4.0

Structural class: the compounds so far containing a Cl atom (5)
SMILES	ALR H2O2 inh	Vif A3G	MLL AF4-AF9 inh	E coli growth	rRNA inh HTS	rRNA inh HTS OD600	rRNA inh HTS RFP	FGF22 binding	HNF4A DNA FP
Cc1ccc2c(Cl)cc(Cl)c(OCC(=O)Nc3cccc(S(=O)(=O)N(C)C)c3)c2n1	-26	6%	·	0.74	·	·	·	·	-5.3
COC(=O)c1sc(-c2ccc(Cl)cc2)cc1NC(=O)CSCC(=O)O	58	-21%	2.3	0.65	-42*	-16*	-6.0*	i	2.6
S=C(Nc1ccc(Cl)cc1)N1CCN(C2CCCCC2)CC1	-6	-1%	·	0.63	·	·	·	·	-1.8
CCCCCC[N+](C)(C)CC/C=C1/c2ccccc2Sc2ccc(Cl)cc21	-8	·	22	0.62	-46	-72	-13	i	2.0
Clc1ccc(Cc2nnc(-c3cccs3)o2)cc1	-10	-3%	-4.5	0.7	-8	-11	0.6	i	1.6

Three entries drawn at random from those above:
SMILES	ALR H2O2 inh	Vif A3G	MLL AF4-AF9 inh	E coli growth	rRNA inh HTS	rRNA inh HTS OD600	rRNA inh HTS RFP	FGF22 binding	HNF4A DNA FP
COCCCNC(=O)c1ccc(CS(=O)(=O)c2ccccc2OC)o1	·	5%	-2.3	0.7	7	18	2.6	i	0.9
CCCCCC[N+](C)(C)CC/C=C1/c2ccccc2Sc2ccc(Cl)cc21	-8	·	22	0.62	-46	-72	-13	i	2.0
Cc1cc(N2CCN(C)CC2)nc2ccc(NC(=S)N3CCOCC3)cc12	12	-15%	8.9	0.67	2	2	-1.4	i	2.5

Later entries
SMILES	ALR H2O2 inh	Vif A3G	MLL AF4-AF9 inh	E coli growth	rRNA inh HTS	rRNA inh HTS OD600	rRNA inh HTS RFP	FGF22 binding	HNF4A DNA FP
CCOc1ccc(CN(C)CCc2ccccn2)cc1	6	4%	-1.2	0.66	10	20	1.4	i	3.6
CCN(CC)S(=O)(=O)c1cc([N+](=O)[O-])ccc1N1CCC(C(N)=O)CC1	·	-4%	-0.4	0.7	23	14	-1.1	i	-0.1
O=C(CSc1ncnc2c1cnn2-c1ccccc1)Nc1ccccc1	-9	1%	-14	0.71	9	17	7.0	i	-3.9
CC(=O)C1=NOC2C(=O)N(c3ccccc3)C(=O)C12 (stereo not drawn)	1	-1%	-0.3	0.68	4	13	-2.0	i	-0.4
Cc1ccccc1C(=O)c1cccn1CC(=O)NCc1ccc2c(c1)OCO2	-47	-3%	·	0.7	·	·	·	·	1.9
CCOC(=O)c1sc(-c2ccc(Cl)cc2Cl)nc1O	97*	-13%	3.1	0.68	-29*	-14*	6.9*	i	-1.0
O=C(Nc1ccc(Cl)cc1)c1cc2nc(C3CC3)cc(C(F)(F)F)n2n1	6	3%	·	0.68	·	·	·	·	2.0
CCN(CC)CCn1c(=S)[nH]c2cc(C(=O)NCCc3ccc(OC)c(OC)c3)ccc2c1=O	·	-5%	-1.5	·	-6	-10	-4.5	i	-0.7
CC1CN(C(=O)COC(=O)c2nn(-c3ccccc3)c(=O)c3ccccc23)CC(C)O1 (stereo not drawn)	0	15%	-1.5	0.69	15	6	-1.1	·	2.9
CC(C)(C)c1ccc(S(=O)(=O)NCc2ccccn2)cc1	-18	-4%	-8.4	0.61	2	1	-1.4	i	1.3
CC(C)N1CCC(C)(C(=O)Nc2ccc(-n3cccc3)cc2)C1 (stereo not drawn)	·	·	12	·	8	18	6.8	i	-1.1
CCNC(=O)NC(C(=O)OC)C12CC3CC(CC(C3)C1)C2 (stereo not drawn)	13	-4%	·	0.72	-9	1	5.8	·	-0.5
Cc1[nH]c2ccccc2c1C(=O)CN1CCCCC1CCO (stereo not drawn)	-13	5%	·	0.67	·	·	·	·	1.8
Cc1ccc(NS(=O)(=O)N2CCOCC2)cc1	-10	·	-0.2	0.73	-2	5	-4.9	i	1.8
CCC(C)NC(=O)c1cn(CCOC)c(=O)c2c1c1ccccc1n2C (stereo not drawn)	3	4%	0.5	0.69	9	6	-0.6	i	4.3
C=C(C)C(=O)OCC(C)C	-3	·	·	0.66	-2	-1	-1.2	i	0.8
NS(=O)(=O)c1ccc(CCNS(=O)(=O)c2cccc3cccnc23)cc1	2	1%	-17	0.69	2	-11	-5.2	i	-10

A portion of the library; count on the stated rates, not on these rows.
